CDC25B-CDK2 inh: human CDC25B-CDK2/CyclinA binding inhibition; P30305+P24941; HTRF CDC25B-CDK2/CyclinA binding, anti-His/anti-Flag; stronger effect = higher value; z-score (concentration not given with the values); 0.72% of 94,000 active; AID 1259370;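 further: score is relative to mean and SD of negative controls; strong numbers were not always called active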
HIV TAR-Tat: HIV-1 TAR-Tat binding disruption; z-score (concentration not given with the values); 0.6% of 100,000 active; HIV-1 TAR RNA, Tat peptide displacement FRET; stronger effect = higher value; AID 1259389;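 further: score is relative to mean and SD of negative controls; some compounds called inactive have numbers as strong as hits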
* = called active by the depositor; / = no result given; & = joins results of further samples.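 How the source made its calls: active means z-score from 3 up in half or more of its runs; inactive means the rest.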

Each structure is followed by: HIV TAR-Tat | CDC25B-CDK2 inh
Cc1cc(NC(=O)C(C)NC(=O)c2ccc(C(C)(C)C)cc2)no1 (configuration not stated)
    / | -0.52
CCc1ccc(-c2cc(C)no2)cc1S(=O)(=O)Nc1cc(F)ccc1F
    -0.21 | /
Cc1nc(NCCCN2CCOCC2)c2c3c(sc2n1)CCCC3
    / | 0.02
COc1ccccc1N1CCN(S(=O)(=O)c2cccc3cccnc23)CC1
    -1.4 | -2
O=C(c1ccc2c(-c3ccccc3)onc2c1)N1CCN(C(=O)c2ccco2)CC1
    0.15 | /
CC(C)C(NS(=O)(=O)c1ccc(Br)s1)C(=O)O (configuration not stated)
    / | -1.1
NC(=O)c1nc(Nc2ccccc2)sc1NC(=O)CC1CCCC1
    -0.23 | /
Cc1c(C(=O)NC2CCCCC2)oc2ccc(S(=O)(=O)N3CCC4(CC3)OCCO4)cc12
    / | -0.9
CSC(=S)N(C)NC(=O)Nc1cccc(Cl)c1
    / | 3.1
CCCCCCCNC1CC(=O)N(c2ccc(Br)cc2)C1=O (configuration not stated)
    -0.12 | 0.16
FC(F)(F)c1cc(N/N=C2/CCSc3sccc32)cc(C(F)(F)F)c1
    / | -0.58
CC(C)(C)OC(=O)N1CCN(CCNC(=O)Nc2cc(Cl)cc(Cl)c2)CC1
    / | -1.2
O=C(CCCn1sc2ccccc2c1=O)NCc1cccc(Br)c1
    2.1 | -0.9
CC(Oc1ccc(C(C)(C)C)cc1)C(=O)Oc1ccc(-n2cnnn2)cc1 (configuration not stated)
    -1.7 | -4
CCC1(C)Cc2c(sc3nc(=S)[nH]c(N)c23)CO1 (configuration not stated)
    / | -2.8
CC(=O)N1CCc2ccc(NC(=O)c3c(-c4c(Cl)cccc4Cl)noc3C)cc21
    / | -2.8
CSc1ccc2c(c1)C(N1CCN(C)CC1)Cc1ccccc1S2 (configuration not stated)
    0.09 | 0.74
Cc1cc(C(=O)Nc2scc3c2c(=O)oc2ccccc23)no1
    0.39 | /
C/C(=C\c1ccccc1)c1nnc2[nH]c(=O)n(C)c(=O)c2n1
    19* | -0.65
CC(C)(C)c1csc(NC(=O)CCS(=O)(=O)c2ccccc2)n1
    0.84 | /
O=C(CC1SC(=O)NC1=O)Nc1ccccc1O (configuration not stated)
    / | -0.26
CCCN1C(=O)c2cc(C(=O)NCCN(C)C)nn2CC1(C)C(=O)NC1CCCC1 (configuration not stated)
    1.6 | /
COc1ccc(OC)c(SCC(=O)O)c1
    / | -0.85
C=CCOc1ccc(C2c3c(oc4ccccc4c3=O)C(=O)N2c2nc(C)c(C)s2)cc1 (configuration not stated)
    0.97 | -3.5
CCOC(=O)c1cc(-c2ccc(Cl)cc2)[nH]c(=O)c1C#N
    / | 0.81
c1ccc(Nc2nn3nnnc3c3ccccc23)cc1
    -6.7 | /
Cc1ccc(-n2nnc(-c3nc(-c4ccccc4F)no3)c2C)c(C)c1
    0.3 | /
Cc1nc(-c2ccccc2)sc1-c1ccc(SCC(N)=O)nn1
    0.56 | /
CCOC(=O)C1=C(C(F)(F)F)Nc2ncnn2C1c1ccc(OC)c(OC)c1 (configuration not stated)
    1.3 | /
CCS(=O)(=O)NCCc1cc2c(C)ccc(C)c2[nH]c1=O
    / | -1.1

Next part, starting with the last 7 of the part before.
Each structure is followed by: HIV TAR-Tat | CDC25B-CDK2 inh
C=CCOc1ccc(C2c3c(oc4ccccc4c3=O)C(=O)N2c2nc(C)c(C)s2)cc1 (configuration not stated)
    0.97 | -3.5
CCOC(=O)c1cc(-c2ccc(Cl)cc2)[nH]c(=O)c1C#N
    / | 0.81
c1ccc(Nc2nn3nnnc3c3ccccc23)cc1
    -6.7 | /
Cc1ccc(-n2nnc(-c3nc(-c4ccccc4F)no3)c2C)c(C)c1
    0.3 | /
Cc1nc(-c2ccccc2)sc1-c1ccc(SCC(N)=O)nn1
    0.56 | /
CCOC(=O)C1=C(C(F)(F)F)Nc2ncnn2C1c1ccc(OC)c(OC)c1 (configuration not stated)
    1.3 | /
CCS(=O)(=O)NCCc1cc2c(C)ccc(C)c2[nH]c1=O
    / | -1.1
Cc1ccn2c(Nc3ccccc3)c(-c3cccnc3)nc2c1
    4.8 | -2.6
O=S(=O)(NCCCn1ccnc1)c1cccs1
    0.65 | -1.4
Cc1cc(Sc2ccc([N+](=O)[O-])c(O)c2)c(C)cc1Cl
    / | -1.6
COc1cccc(-c2nc(SCc3cc(=O)n4ccsc4n3)n[nH]2)c1
    0.03 | /
O=C(CN1CCOCC1)Nc1c(C(=O)C2CC2)oc2ccccc12
    0.71 | 0.16
Cc1ccc(Cl)cc1N1CCN(C(=O)[C@H]2[C@@H]3C[C@@H]4[C@H]2C(=O)O[C@@H]4C3)CC1
    3.4 | -2.8
CCOC(=O)CCc1c(C)nc2nc(NCc3cc(F)cc(F)c3)[nH]n2c1=O
    -0.67 | -1.2
O=C(CN1c2ccccc2NC2=C(C(=O)CCC2)C1c1cccs1)NC1CCCC1 (configuration not stated)
    0.03 | /
O=C(CSc1nc2sc3c(c2c(=O)[nH]1)CCCC3)N1CCN(CCO)CC1
    1.1 | -2.1
Cc1cc(C)c(OCC(O)CNC(C)(C)C)c(C)c1 (configuration not stated)
    0.11 | -0.01
CC(SC1=Nc2ccccc2C2=NC(C(C)C)C(=O)N12)C(=O)NCc1ccccc1 (configuration not stated)
    1.4 | /
CC1CC(C)CN(C(=O)CSC2=Nc3ccccc3C3=NC(Cc4c[nH]c5ccccc45)C(=O)N23)C1 (configuration not stated)
    5.4* | /
Cc1ccc(CNC(=O)CC(C)CC2=NS(=O)(=O)c3ccccc3N2)o1 (configuration not stated)
    0.5 | /
COCCNc1cc(N(C)C)c2noc3c2c1C(=O)c1ccccc1-3
    -0.4 | -1.2
Cc1ccnc2c1NC(=O)c1cccnc1N2C1CC1
    0.29 | /
Cc1csc(NC(=O)CN2C(=O)C(C)(C)c3cc(S(=O)(=O)N4CCCC4)ccc32)n1
    -1.3 | /
Cc1nnc(Nc2cc(Br)cc(Br)c2O)s1
    / | -4.3
CC(C)CCNCC1OCc2ccccc2CO1
    / | -0.36
CC1=C(C(=O)OCC2CCCO2)C(c2cccc(O)c2)C2=C(CC(C)(C)CC2=O)N1 (configuration not stated)
    -0.92 | -1.7
Cc1ccc2oc(=O)c3cnn(CC(=O)NCc4ccco4)c3c2c1
    / | -0.09
CCC(C)Nc1nc2c(S(=O)(=O)c3ccccc3)nnn2c2ccsc12 (configuration not stated)
    0.16 | -2.4
COCCNc1ncnc2onc(C)c12
    0.29 | /
Cn1nc([N+](=O)[O-])nc1-n1cnc2ccccc21
    / | -0.76
Oc1ccc(Cn2cnc3ccccc32)c2cccnc12
    / | -0.72
COc1ccc(N2C(=O)C3CC=C(Cl)CC3C2=O)cc1 (configuration not stated)
    0.54 | 0.3
COc1cc(C2OC(c3cc(-c4ccccc4)nc4ccccc34)=NN2C(C)=O)ccc1OC(C)=O (configuration not stated)
    2.3 | /
O=C(c1cc(=O)c2ccccc2o1)N(Cc1ccc(F)cc1)c1ccccn1
    1 | -1.5
Cc1nc2cc(Cl)ccc2c(=O)n1Cc1ccncc1
    / | -1.7
O=C(CCCc1nnc2c(=O)n(-c3cccc(F)c3)ccn12)N1CCc2ccccc2C1
    0.88 | /
Cc1ccc(S(=O)(=O)N(C)C)cc1NC(=O)c1cccnc1Sc1ccccc1
    / | -2.3
Cc1ccc(C(=O)CC2(O)C(=O)Nc3ccc(Br)cc32)cc1 (configuration not stated)
    0.67 | 0.15
O=C(CCCC1=NS(=O)(=O)c2ccccc2N1)Nc1ccc(F)cc1F
    0.01 | /
Cc1nc2cccc(C)n2c(=O)c1NC(=O)c1c(F)cccc1Cl
    1.9 | /
CCn1cc(C2=NOC(C(=O)N3CCC(C(N)=O)CC3)C2)c(C)n1 (configuration not stated)
    1.2 | -1.1
O=S(=O)(Nc1ccccc1SCc1cccc(Cl)c1F)c1cc(Cl)sc1Cl
    / | -1.5
CCN=C(NCC)Nc1ccc(Cl)cc1
    / | -1.1
c1cnc(N2CCN(c3ncnc4c3nc3n4CCCCC3)CC2)nc1
    0.45 | /
Cc1ccc(-n2ncc3c(Nc4c(C)n(C)n(-c5ccccc5)c4=O)ncnc32)c(C)c1
    / | -2.7
CCN(CC)c1nc2c(s1)C(=O)CC(C)(C)C2
    2.6 | -2.9
Cc1ccc(-c2nc3ccccn3c2Nc2ccccc2C)o1
    / | -1.8
CCCc1nc2sc3c(OC(C)C)ncnc3c2c2c1COC(C)(C)C2
    0.15 | -1.5
CSc1cccc(NC(=O)CN2C=NS(=O)(=O)c3ccccc32)c1
    -0.02 | /
O=C(CN1C(=O)c2ccccc2S1(=O)=O)Nc1cccc(Br)c1
    / | -0.83
COc1ccc(NC(=O)N(C2CCCCC2)C(C)c2ccco2)c(OC)c1 (configuration not stated)
    -2.5 | /
CCc1ccc(C2C(C#N)=C(C)NC3=C2C(=O)CC(c2ccccc2)C3)cc1 (configuration not stated)
    1.6 | -0.92
COC(=O)C1=CN(Cc2ccc(OC)c(OC)c2)C=C(C(=O)OC)C1c1ccc(C(F)(F)F)cc1
    / | -1.8
CCCNC(=O)C1CCCN(c2nnc(-n3c(C)ccc3C)s2)C1 (configuration not stated)
    0.23 | 0.61
CCN(CCN(C)C)C(=O)c1c2c(nc3ccccc13)C(=O)N(C1CCCCC1)C2
    1.3 | /
CNc1ccc(Br)cc1-c1nc2ccccc2[nH]c1=O
    -5.5 | -0.16
COCCn1c(SCC(=O)NC2CCCCC2)nc2c(c1=O)SC(C)C2 (configuration not stated)
    / | -0.72
N#CC(C#N)=CNNc1ncnc2ccsc12
    / | -1.1
O=C(Nc1ccc(OC(F)(F)F)cc1)Nc1ccc(C2=NCCO2)cc1
    / | -0.89
CCCN1C(=O)c2cc(C(=O)NCCc3ccco3)nn2CC1(C)C(=O)NC1CCCC1 (configuration not stated)
    0.99 | /
Cc1ccc(-c2nc3ccccc3o2)cc1NC(=O)c1sc2ccccc2c1C
    / | -7.6
O=C(COc1ccc2oc3c(c2c1)CCCC3)Nc1ccccn1
    8.3 | 0.68
O[C@H]1[C@H](O)[C@@H](O)C2OC[C@H]1O2
    1 | /
Nc1nonc1C(=O)NCCNCc1cccc(Br)c1
    1.4 | -1.7
O=C1N=C(N2CCOCC2)CS1
    / | 0.03
COc1ccc(OC)c(CCCc2cc(OC)ccc2OC)c1
    / | -2.6
COc1ccc(C(=O)N2CCSC2=S)cc1OC
    0.52 | 2.5

Profiles, looked up by structure. Values in the order: HIV TAR-Tat	CDC25B-CDK2 inh
N#CC(C#N)=CNNc1ncnc2ccsc12 in the list: /	-1.1
O=C(COc1ccc2oc3c(c2c1)CCCC3)Nc1ccccn1 in the list: 8.3	0.68
Cc1nc2cccc(C)n2c(=O)c1NC(=O)c1c(F)cccc1Cl in the list: 1.9	/

New compounds follow:
Each structure is followed by: HIV TAR-Tat | CDC25B-CDK2 inh
CCSCCOC(=O)C1=C(C)NC2=C(C(=O)C(C(=O)OC)C(C)C2)C1c1cccs1 (configuration not stated)
    1.3 | -1.1
Cc1ccc(Cn2nc(C)c(NC(=O)c3cc4n(n3)C(C(F)(F)F)CC(c3ccco3)N4)c2C)cc1 (configuration not stated)
    -0.99 | -1.2
Cc1ccc(S(=O)(=O)CCC(=O)O)cc1C
    2.3 | /
COc1ccc(Cc2n[nH]c(=S)[nH]c2=O)cc1OC
    / | -1.6
CC1c2cccn2CCN1C(=O)Nc1cccc(F)c1 (configuration not stated)
    -2 | /
O=C(c1cc(S(=O)(=O)N2CCCCC2)c[nH]1)N1CCCCC1
    3 | /
CC(C)(C)[C@]1(O)CCN2C[C@H]3c4ccccc4CCc4cccc(c43)[C@@H]2C1
    / | -1.1&0.07
Nc1ccc2nc(SCc3ccc(F)cc3)sc2c1
    0.87 | -3.7
CCCOc1ccc(-c2nc(SC)[nH]c(=O)c2C#N)cc1OC
    1.7 | -1.9
CN(C(=O)CSc1nc(-c2ccccc2)nc2cc(=O)[nH]n12)c1ccccc1
    1.6 | /
COc1cc(C2OC(c3cc(C)nc4ccccc34)=NN2C(C)=O)ccc1OC(C)=O (configuration not stated)
    0.92 | /
COc1cc(C2CC(=O)Nc3nc(N)[nH]c(=O)c32)ccc1OCc1ccc(C)cc1 (configuration not stated)
    0.85 | -0.48
Cc1ccccc1-c1nc(COc2ccccc2-c2nnc(-c3ccccc3)o2)c(C)o1
    -0.13 | /
Cc1nn(C)c(C(=O)Nc2cc(C(F)(F)F)cc(C(F)(F)F)c2)c1[N+](=O)[O-]
    / | -0.59
O=C(c1ccc(Br)o1)N(Cc1ccccc1)Cc1ccccc1
    / | 0.99
CC(C)Cn1cc(NC(=O)NCCCN2CCCc3ccccc32)c2ccccc2c1=O
    0.18 | /
CC(C)CCC(C(N)=O)C1=NC(C)(C)Cc2ccccc21 (configuration not stated)
    1.7 | -0.03
CC1CC(C)CN(C(=O)Nc2cn(C)c(=O)c3ccccc23)C1 (configuration not stated)
    0.64 | /
O=[N+]([O-])c1cnc(Sc2nnc(-c3ccc(Cl)cc3)o2)s1
    / | -0.11
CCC(=O)N1c2ccc(S(=O)(=O)CCC(=O)Nc3ccc4c(c3)OCCO4)cc2CC1C (configuration not stated)
    0.25 | /
O=S(=O)(c1cccc(F)c1)N1CCN(c2nc3ccccc3n3cccc23)CC1
    -1.1 | -2.6
COC(=O)CSc1nnc(SC)n1C
    / | -2.2
Cc1nc2c(sc3nc4c(cc32)COC(C)(C)C4)c(=O)n1Cc1ccccc1
    / | -0.96
Cn1c(=O)oc2cc(S(=O)(=O)NCC3COc4ccccc4O3)ccc21 (configuration not stated)
    / | -2.1
Cc1cccc(N2CC(O)=C(c3nc4ccccc4n3C)C2=N)c1C
    -0.14 | -1.3
